HCMV NEC inh = inhibitors of HCMV UL50-UL53 nuclear egress complex interaction; AID 1918969; HTRF UL50-UL53 interaction, normalized percent inhibition; actives 0.15% (n = 190,000); inhibition, % (test concentration not listed);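 active means both replicates at 50% or more, plus weaker picks with an unusually low signal ratio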;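 further: stock transfer was 100 nL into about 20 µL; 0% = negative control wells and 100% = wells with untagged competitor protein; inactives centre near -12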
Sa growth inh = S. aureus growth inhibition; S. aureus RN4220 growth, OD600, 20 h, 42 °C; stronger effect = lower value; relative growth, % (concentration not given with the values); actives 0.53% (n = 170,000); AID 720641;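 active means growth at 42 °C up to 50% and 20 or more points under that at 30 °C, or under 10% at both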;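 further: 300 nL library stock went into each well; scaled to the means of positive and negative controls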
GIV-Gai inh = inhibitors of GIV GBA-motif binding to rat Galpha-i3; percent of control (FP), % (no concentration beside the values); Galpha-i3/FITC-GIV peptide fluorescence polarization, 90 min; stronger effect = lower value; scaled: aluminum fluoride 0%, vehicle 100%; actives 0.42% (n = 210,000);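 active means replicate mean at 85% of control or lower, very high polarization wells dropped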;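 further: wells of about 15 µL received 100 nL stock; the first replicate is given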
Target sequence (P08753 whole entry, looked up): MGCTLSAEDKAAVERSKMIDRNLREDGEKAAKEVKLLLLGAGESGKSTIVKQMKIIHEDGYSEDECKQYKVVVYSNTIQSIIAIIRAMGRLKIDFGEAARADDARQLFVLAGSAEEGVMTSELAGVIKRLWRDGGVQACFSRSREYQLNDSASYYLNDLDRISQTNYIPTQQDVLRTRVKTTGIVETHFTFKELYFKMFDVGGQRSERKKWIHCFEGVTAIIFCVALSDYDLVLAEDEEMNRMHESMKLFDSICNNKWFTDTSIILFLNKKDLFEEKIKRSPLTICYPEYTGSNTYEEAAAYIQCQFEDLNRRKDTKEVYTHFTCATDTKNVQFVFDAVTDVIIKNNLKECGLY
Sa growth inh second temp = also measured in Sa growth inh; calls as there; relative growth, %; measured here: growth at 30 °C;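 optical density after 20 h as mean of two plates; 100% = untreated growth and lower means inhibition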
The depositor's hits bear a star; nt = not tested or not shown. Rows are unselected. Share with any hit: about 0.83%.

mol | Sa growth inh second temp | GIV-Gai inh | HCMV NEC inh | Sa growth inh
COc1cc(OC)cc(C(=O)NCCn2c(-c3ccncc3)nc3cccnc32)c1 | nt | 99 | 5 | nt
Cc1c(Cl)cccc1-n1nc(C)c2c(C)cc(=O)n(CC(=O)NCc3ccccc3)c21 | 100 | 103 | nt | 116
NNc1ccc2nc3ccccc3c(=O)n2n1 | 79 | nt | -78 | 87
Cc1ccc(-c2csc3nnc(SCC(N)=O)n23)cc1 | 74 | 113 | 2 | 92
Cc1ccc(-c2ccccc2C(=O)O)cc1 | 102 | nt | 27 | 96
c1ccc(CN2CCN(Cc3cnc(-c4ccccc4)[nH]3)CC2)cc1 | 88 | 103 | -9 | 95
Cc1nn(-c2ccccc2)c2c1-c1sc(C(=O)N(C)Cc3ccccc3)cc1CC2 | nt | 104 | -28 | nt
N#C/C(=C(/O)c1ccc(Br)s1)c1nc2ccccc2[nH]1 | 84 | 103 | -23 | 93
Cc1ccc(S(=O)(=O)N2CCC(c3nnc(-c4cccc(C)c4)o3)CC2)cc1 | 89 | 106 | -41 | 104
CC1CN(C(=O)c2cccc(C(=O)N3CC(C)OC(C)C3)c2)CC(C)O1 (stereo unspecified) | 82 | nt | -5 | 95
CCSc1cc(CC)sc1C(=O)O | 77 | nt | -18 | 90
O=C1S/C(=C\c2cc3c(cc2Br)OCO3)C(=O)N1c1ccccc1 | nt | 99 | -15 | nt
Nn1c(SCC(=O)Nc2ccc(S(=O)(=O)N3CCCC3)cc2)nnc1-c1ccccc1 | 95 | nt | 0 | 88
O=C(COC(=O)Cc1cccc2ccccc12)Nc1ccccc1F | 82 | nt | -32 | 105
O=C1C(=O)N(c2cccnc2)C(c2ccc(O)cc2)/C1=C(\O)c1ccc(Br)cc1 (stereo unspecified) | 86 | 98 | -83 | 114
COc1ccc(C(=O)N(Cc2ccco2)Cc2ccc(C)o2)cc1 | 87 | 103 | -18 | 101
CCOC(=O)c1c(NC(=O)c2cccc(Cl)c2)sc(C(=O)Nc2cc(C(F)(F)F)ccc2Cl)c1C | nt | 92 | -31 | nt
COc1cc(C(=O)NC2CCN(C)CC2)nc2ccccc12 | 89 | 109 | -15 | 75
CC1CCCCC1NC1=NCCCS1 (stereo unspecified) | 92 | nt | 9 | 100
C=CCn1c(C)cc(-c2csc(NCc3ccccc3)n2)c1C | 61 | nt | -14 | 88
CCc1ccc(N2CC34C=CC(O3)C(C(=O)OC)C4C2=O)cc1 (stereo unspecified) | 93 | 108 | nt | 109
CC(=O)c1ccc(NC(=O)CSc2nc(=O)n(Cc3ccncc3)c3c2CCC3)cc1 | 83 | 104 | nt | 128
O=C(NCC1CCCO1)Nc1ccc(Cl)cc1 (stereo unspecified) | 92 | nt | 7 | 103
COc1ccccc1-n1c(O)c(C=NCC2(C)CC(O)CC(C)(C)C2)c(=O)[nH]c1=O (stereo unspecified) | nt | 215 | -9 | nt
Cc1ccc(NC(=O)CN2C(=O)C3CCCC3=Nc3ccccc32)cc1 (stereo unspecified) | nt | 102 | 0 | nt
O=C(CSc1nnc2n1CCCN2)c1ccccc1 | 88 | 102 | -42 | 97
CCCNC(=O)COc1ccc(-c2nn(C)c(=O)c3ccccc23)cc1 | 89 | 102 | 5 | 94
CC12CCC(C(=O)N3CCc4ccccc4C3)(CC1=O)C2(C)C (stereo unspecified) | 70 | nt | -29 | 105
CN(C(=O)c1cc(-c2ccc(O)cc2)on1)c1ccccc1 | 77 | 100 | 1 | 115
O=c1c2sccc2nc(SCc2nc(-c3ccc(Br)cc3)no2)n1C1CC1 | nt | 107 | -37 | nt
Cc1nn(-c2ccccc2)c(N)c1C(O)(C(F)(F)F)C(F)(F)F | 91 | nt | -16 | 84
COCCn1c(CN2C(=O)c3ccccc3C2=O)nc2cccnc21 | 94 | 107 | -42 | 103
CC(C)Cn1c(SCc2ccccc2)nnc1-c1ccncc1 | 87 | 104 | nt | 72
CCc1ccccc1NC(=O)CN(C)CC(=O)NC1CC1 | 91 | nt | -8 | 94
CCCCNC(=O)CN1C(=O)c2c(c3ccccc3n2C)C1c1ccc(OC)cc1 (stereo unspecified) | 93 | 106 | nt | 95
Cc1ccc(Cl)cc1N(C)C(=O)[C@H]1[C@@H]2C[C@@H]3[C@H]1C(=O)O[C@@H]3C2 | 70 | 99 | -9 | 95
O=C(NCCN1CCCCC1)/C(=N\O)c1ccccc1 | 93 | 95 | 0 | 100
O=C(O)CC1S/C(=N/N=C2CCCC2)NC1=O (stereo unspecified) | 110 | 95 | -13 | 101
COc1ccc(CCNC(=O)c2nn(C)cc2Cl)cc1 | 91 | 109 | 10 | 95
Cc1cc(C(=O)NCCC2=CCCCC2)c2c(=O)n(C)c(=O)n(C)c2n1 | nt | 104 | -24 | nt
COc1ccc2nc3sc(C(=O)N4CCCC4)c(N)c3cc2c1 | 96 | -62* | -55 | 143
Fc1ccc(/C=C/c2onc3ccccc23)cc1 | nt | 105 | -6 | nt
Cn1c(=O)c(=O)n(C)c2cc(S(=O)(=O)N3CCCC3C(=O)O)ccc21 (stereo unspecified) | 92 | 102 | nt | 84
CCOCC(=O)Nc1ccc(I)cc1 | 94 | 106 | -11 | 110
O=C(NCCCN1CCCC1)c1ccc(CSCc2cccc(Cl)c2)o1 | 82 | 102 | 3 | 94
CCOC(=O)C1CCN(C(=O)c2sc3ncnc(N4CCN(c5ccc(OC)cc5)CC4)c3c2C)CC1 | nt | 109 | 0 | nt
CCn1cc(/C=C2/C(=O)N(c3ccccc3)N=C2C)c2ccccc21 | 93 | nt | -41 | 109
COc1ccc(/C=C2/SC(=S)N(CCC(=O)Nc3ccccc3)C2=O)cc1 | 108 | 104 | nt | 99
O=C(/C=C/Oc1ccc(Cl)cc1)c1ccc(Br)cc1 | 87 | 113 | -7 | 96
COc1ccc(CNS(=O)(=O)c2ccc3[nH]c(=O)oc3c2)c(OC)c1 | 70 | 98 | 0 | 86
N#CCC(=O)N1CCCC1 | nt | 106 | -16 | nt
COc1ccc2cc(C#N)c(SCC(=O)N3c4ccccc4CC3C)nc2c1 (stereo unspecified) | 109 | 128 | 3 | 93
COc1ccc(-c2cc(C(N)=O)[nH]n2)c(F)c1 | 92 | nt | -5 | 91
O=C(NCc1ccccn1)c1cccc(N2CCCS2(=O)=O)c1 | nt | 104 | -25 | nt
COC(=O)c1ccc(-c2nc3cnccn3c2NC2CCCCC2)cc1 | nt | 109 | -39 | nt
COc1ccc(CCNC(=O)c2sc3ccccc3c2Cl)cc1OC | nt | 98 | -21 | nt

Following part
mol | Sa growth inh second temp | GIV-Gai inh | HCMV NEC inh | Sa growth inh
N#Cc1ccc(Cl)cc1NC(=O)COC(=O)c1n[nH]c2ccccc12 | 80 | nt | -2 | 83
CCc1ccc(C2=C(C)C(N3CCC(C(=O)NCc4ccc(C)o4)CC3)=NS2(=O)=O)cc1 | 93 | 103 | nt | 101
Nn1c(C2CC2)n[nH]c1=S | 87 | nt | -19 | 91
Cc1ccc(C(CNC(=O)Nc2ccccc2)N2CCN(C)CC2)cc1 (stereo unspecified) | 84 | 101 | -33 | 94
CC1c2cccc(O)c2CC2=C(O)C3(O)C(O)=C(C(N)=O)C(=O)C(N(C)C)C3C(O)C21 (stereo unspecified) | 8 | nt | 46 | 11
Cc1ccc(-c2nsc(SCC(N)=O)n2)cc1 | 87 | 104 | nt | 124
CC(=O)NC1CC(C)(C)N(OC(=O)c2ccccn2)C(C)(C)C1 | 96 | nt | 10 | 76
O=C1CC(NC23CC4CC(CC(C4)C2)C3)C(=O)N1Cc1ccc2c(c1)OCO2 (stereo unspecified) | 97 | 106 | -12 | 101
Cc1ccc2c(=O)c(C(=O)c3ccc(Cl)cc3)cn(CC(=O)NC3CCCCC3)c2n1 | 97 | 100 | nt | 115
COc1ccc(/C=C2/Sc3ccc(C(=O)NC4CCCc5ccccc54)cc3NC2=O)cc1OC (stereo unspecified) | 81 | 106 | nt | 93
Cc1cc2c3c([nH]c2cc1S(=O)(=O)N1CCCC1)CCCC3=O | 66 | 100 | -17 | 104
Cc1ccc(S(=O)(=O)N2CCN(CCOC(=O)c3ccccc3)CC2)cc1C | 104 | nt | -17 | 99
Cc1cc(NC(=O)C2CC(c3c(F)cccc3Cl)=NO2)no1 (stereo unspecified) | nt | 108 | 0 | nt
N#CCOC(=O)COc1ccc(Cl)cc1Cl | 78 | nt | -17 | 96
Cc1ccc(-n2c(NN)nc3sc4c(c3c2=O)CCCC4)cc1 | 56 | 105 | nt | 78
CC(C)CC(=O)Nc1cccc2c1C(=O)N(c1ccccc1)C2=O | 90 | 101 | -81 | 85
O=C(c1cc2ccccc2oc1=O)N1CCN(c2ccc(N3CCOCC3)nn2)CC1 | 91 | 100 | -19 | 71
CCCCN1C(=O)C2ON(c3ccccc3)C(c3ccc(OC)cc3OC)C2C1=O (stereo unspecified) | 81 | 98 | -17 | 90
O=C(c1cc(C(=O)Nc2ccccc2)c(=O)n(-c2ccccc2)c1)c1cc(Cl)ccc1O | 92 | nt | -15 | 95
Cc1ccc(C(C)C)c(OCC(=O)Nc2c(C(=O)c3ccccc3)oc3ccccc23)c1 | 97 | 107 | 2 | 102
CCOC(=O)c1cc2cc(OCc3ccccc3)ccc2n1C(=O)c1ccccc1C(=O)O | 84 | 101 | -29 | 89
CC1(c2ccc(Br)cc2)NN=Cc2nc3ccccc3c(=O)n21 (stereo unspecified) | 82 | nt | -19 | 87
CC(C)CCNC(=O)c1ccc(CS(=O)(=O)Cc2ccc(F)cc2)o1 | 88 | 104 | nt | 112
COc1ccc(NC(=O)Cn2c(=O)n(-c3ccc(C)c(C)c3)c(=O)c3c4c(sc32)CCCCC4)cc1Cl | 97 | 104 | 6 | 101
CCN(CC)C(=O)c1sc2c(c1C)c(=O)n(-c1ccc(C)c(C)c1)c(=O)n2CC(=O)Nc1ccc(OC)cc1OC | 79 | 100 | nt | 74
Nc1cnc(Oc2c(Cl)cccc2Cl)c(C(F)(F)F)c1 | 77 | 106 | -1 | 100
Cc1nc2nc(N(CCOc3ccccc3)S(=O)(=O)c3ccccc3)nn2c(C)c1Cl | nt | 97 | 14 | nt
O=S(=O)(c1ccc(Cl)cc1)N1CCc2nc(N3CCCCC3)ncc2C1 | nt | 110 | -10 | nt
CCCOc1ccc(-c2cccc(NS(=O)(=O)c3cccs3)c2)nn1 | 82 | 101 | nt | 90
Cc1nn(S(=O)(=O)c2ccc(F)cc2)c(C)c1S(=O)(=O)N1CCC(C)CC1 | 86 | 104 | nt | 84
O=C(Cn1ncc2c3ccccc3n(Cc3cccc(Cl)c3)c2c1=O)NC1CCCCCC1 | 81 | 202 | -12 | 98
C=CCOC(=O)C1=C(C)NC(S)=C(C#N)C1c1ccsc1 (stereo unspecified) | nt | 102 | -33 | nt
COc1ccc(S(=O)(=O)Nc2ccc3c(c2)CS(=O)(=O)C3)cc1 | 83 | 106 | -13 | 96
O=C(COc1cccc(Cl)c1)NC1CCCCC1 | 84 | 107 | -12 | 99
CCOC(=O)Cn1c(=O)n(-c2ccccc2OC)c2nc(-c3ccccc3C)nc(C(N)=O)c21 | 84 | 103 | nt | 101
Cc1cc(C)nc(NN)n1 | 91 | nt | -14 | 107
CC(C)(C)c1cc(N=NC(=O)c2ccco2)cc(C(C)(C)C)c1O | 80 | 104 | -36 | 83
Cn1c(O)c(C=Nc2ccc(N3CCOCC3)c(Br)c2)c(=O)n(C)c1=S | 100 | 102 | 5 | 99
Cc1onc(-c2ccccc2)c1-c1nc2ccccc2c(=O)o1 | 88 | 103 | -5 | 109
CCOC(=O)Cn1c(=O)n(Cc2ccccc2)c(=O)c2cc3c(nc21)CC(C)(C)OC3 | nt | 97 | -30 | nt
COc1ccc(C(=O)O)cc1NC(=S)NC(=O)Cc1ccc(Cl)cc1 | 91 | 104 | nt | 87
COc1cc(/C=C/C(=O)OCCOc2ccccc2)ccc1O | 63 | nt | -57 | 89
CC(=O)Nc1ccc(S(=O)(=O)NC2(C(F)(F)F)C(=O)Nc3c2c(=O)[nH]c(=O)n3-c2ccc(C)c(C)c2)cc1 (stereo unspecified) | 91 | 102 | -4 | 105
COc1cccc(NC(=O)Cn2c(=O)n(-c3cccc(OC)c3)c(=O)c3c4c(sc32)CCCC4)c1 | 85 | 101 | -2 | 103
O=C(NCCCn1ccnc1)c1cc(NS(=O)(=O)c2cccs2)cc(NS(=O)(=O)c2cccs2)c1 | 95 | nt | 3 | 105
CCS(=O)(=O)c1ccccc1C(=O)Nc1nc2c(s1)CCCC2 | 90 | 103 | -40 | 84
Cc1c(C(=O)OC(C)C(=O)Nc2ccc(S(N)(=O)=O)cc2)oc2ccc(Br)cc12 (stereo unspecified) | 92 | nt | 8 | 104
CCCC(=O)Nc1cc(C)c(O)c(-c2nc3ncccc3o2)c1 | 93 | 105 | -15 | 87

Limited to GIV-Gai inh (4 entries from above):
SMILES	GIV-Gai inh
Cn1c(O)c(C=Nc2ccc(N3CCOCC3)c(Br)c2)c(=O)n(C)c1=S	102
Cc1onc(-c2ccccc2)c1-c1nc2ccccc2c(=O)o1	103
CCOC(=O)Cn1c(=O)n(Cc2ccccc2)c(=O)c2cc3c(nc21)CC(C)(C)OC3	97
COc1ccc(C(=O)O)cc1NC(=S)NC(=O)Cc1ccc(Cl)cc1	104

(next part)
mol | Sa growth inh second temp | GIV-Gai inh | HCMV NEC inh | Sa growth inh
N#Cc1sccc1CS(=O)c1ccc(Cl)cc1 (stereo unspecified) | 82 | 98 | 2 | 100
Cc1c(C)c(C)c(CN2C(=O)c3ccccc3C2=O)c(C)c1C | 88 | 97 | -4 | 86
CN(C)S(=O)(=O)c1cccc(C(=O)Oc2ccccc2C#N)c1 | 86 | nt | -10 | 71
Cc1nnc(C)n1/N=C\c1cccnc1 | 90 | nt | 0 | 91

Compound activity as filed in PubChem BioAssay.
